HIV TAR-Tat: TAR RNA-Tat peptide displacers, HIV-1, primary screen, biochemical, FRET, FAM/TAMRA-labeled Tat. HIV-1 TAR RNA, Tat peptide displacement FRET; active compounds read high. z-score (test concentration not listed). 0.6% of 100,000 active. AID 1259389, 2018;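 further: score is relative to mean and SD of negative controls; some compounds called inactive have numbers as strong as hits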
CDC25B CDK2 inh: primary biochemical HTRF screen for blockers of M-phase inducer phosphatase 2 binding to CDK2/cyclin A | P30305+P24941 | HTRF CDC25B-CDK2/CyclinA binding, anti-His/anti-Flag; active compounds read high | z-score (concentration not given with the values) | 0.72% of 94,000 active;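 further: score is relative to mean and SD of negative controls; strong numbers were not always called active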
* = called active by the depositor; / = not tested or not shown; & = joins results of further samples.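 How the source made its calls: active means z-score from 3 up in half or more of its runs; inactive means the rest.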

Each structure is followed by: HIV TAR-Tat | CDC25B CDK2 inh
1	CC1(C)Cc2c(sc3[nH]c(=O)n(Cc4ccco4)c(=O)c23)CO1
    -0.4 | -1.72
2	CC(C)(C)C(=O)OC/C(N)=N/OC(=O)c1cccs1
    / | -1.95
3	NC(=O)Cn1cnc2c(oc3ccccc32)c1=O
    2.9 | /
4	CCOc1ccc(Nc2nc3ccc(C)cc3n3nnnc23)cc1
    0.76 | /
5	CN(C)/N=C/c1ccc([N+](=O)[O-])cc1
    / | 0.82
6	O=C(Cn1cnc2c(nnn2-c2ccc(F)cc2)c1=O)Nc1ccc2c(c1)OCCO2
    / | -1.46
7	O=C(NCCn1cc(SCc2ccccc2)c2ccccc21)c1cccs1
    / | -0.23
8	Fc1ccc(CN2CCc3nc(N4CCCC4)ncc3C2)cc1
    0.19 | /
9	O=S(=O)(NCc1nc(-c2ccc(Cl)cc2)no1)c1ccc(F)cc1
    1 | 2.79
10	N/C(=N\NC(=O)c1cccnc1)c1ccncc1
    / | -1.25
11	OCc1cnc(SCc2c(F)cccc2Cl)n1Cc1ccc(F)cc1
    -0.86 | /
12	O=C(CCCN1CCN2CCCCC2C1)c1ccc(F)cc1 (stereo not drawn)
    0.59 | -0.6
13	CC1(C)CC(=O)C2=C(C1)Nc1cc3c(cc1C2c1ccc(F)cc1)OCCO3 (stereo not drawn)
    / | -1.28
14	COc1ccc(S(=O)(=O)Nc2ccc3c(c2)OCCO3)cc1OC
    / | -0.04
15	CC1=C(C(=O)Nc2ccc3c(c2)OCO3)C2(CCN(C(C)C)CC2)OC1=O
    1.07 | /
16	Cc1nc(C(F)(F)F)ccc1C(=O)O/N=C(\N)c1cnccn1
    / | -0.94
17	COCn1c(-c2ccc(OC)cc2)nc2ccccc21
    -0.14 | -1.35
18	O=C(Cn1c(=O)oc2cc(S(=O)(=O)N3CCCC3)ccc21)N1CCCCCC1
    / | -0.92
19	C=CCc1ccc(Cc2ccc([N+](=O)[O-])cc2)c(OC)c1
    / | -0.66
20	CCC(C)NC(=O)c1c2c(nc3ccccc13)C(=O)N(C1CCCCC1)C2 (stereo not drawn)
    -0.16 | /
21	CCc1ccc2nc(Nc3nc4c(c(=O)[nH]3)CCCC4)nc(C)c2c1
    / | 2.04
22	Cc1nnc(N2CCN(C(=O)Nc3ccc(F)c(Cl)c3)CC2)c2nn(-c3ccccc3)c(C)c12
    0.02 | /
23	O=C(Cn1c(=O)n(CC(=O)NCc2ccccc2)c2ccccc21)NCc1ccccc1
    / | -3.11
24	CCOc1cc(C2C(C(C)=O)=C(C)Nc3ncnn32)ccc1O (stereo not drawn)
    / | -1.12
25	CC(C)S(=O)(=O)c1oc(-c2ccc(F)cc2)nc1S(=O)(=O)c1ccccc1
    0.62 | -0.51
26	COCCn1c(CN2CCN(c3ccccc3)CC2)nc2c1c(=O)n(C)c(=O)n2C
    / | -1.47
27	COc1cc(OC)c(NC(=O)NCC2CCN(C3CCCC3)C2)cc1Cl (stereo not drawn)
    1.05 | -2.68
28	CSc1ncc(-c2nnc(SCc3ccccc3)n2C)n1C
    / | 0.33
29	COCCNC(=O)Cn1nc(C)n2c(cc3sccc32)c1=O
    -0.77 | -0.21
30	COc1ccc2nc(Nc3nc4ccccc4c(=O)[nH]3)nc(C)c2c1
    -1.23&-0.65 | 1.65&0.25

The closing three compounds of the part before open the next one:
Each structure is followed by: HIV TAR-Tat | CDC25B CDK2 inh
28	CSc1ncc(-c2nnc(SCc3ccccc3)n2C)n1C
    / | 0.33
29	COCCNC(=O)Cn1nc(C)n2c(cc3sccc32)c1=O
    -0.77 | -0.21
30	COc1ccc2nc(Nc3nc4ccccc4c(=O)[nH]3)nc(C)c2c1
    -1.23&-0.65 | 1.65&0.25
31	CCOc1cc(C2C(C#N)=C(N)Oc3cc4c(cc32)OCO4)cc(Br)c1OC (stereo not drawn)
    / | 1.23
32	CC1=C(C(=O)OCc2ccccc2)C(c2ccc3c(c2)OCO3)C2=C(CC(c3cccs3)CC2=O)N1 (stereo not drawn)
    0.9 | -0.05
33	CC(CNC(=O)CCc1nnc2ccc(NCc3ccc4c(c3)OCO4)nn12)c1ccccc1 (stereo not drawn)
    1.39 | /
34	O=C(CCS(=O)(=O)c1ccc2c(c1)NC(=O)CS2)Nc1ccc(Cl)cc1
    0.27 | /
35	COc1ccc(NS(=O)(=O)c2ccc(OC)c(OC)c2)cc1OC
    0.38 | -0.38
36	CC(=O)Nc1ccc(S(=O)(=O)Nc2ccc(S(=O)(=O)N3CCCCC3)cc2)cc1
    / | -0.77
37	CC1CC(C)CN(c2ccc3nncn3n2)C1 (stereo not drawn)
    1.55 | -1.54
38	O=C(Nc1ccc2c(c1)OCCO2)C1CCCN(c2ncnc3c2nc2n3CCCCC2)C1 (stereo not drawn)
    -1.13 | /
39	Cc1c(Cc2ccc(Cl)cc2)c(NCCCn2ccnc2)n2c(nc3ccccc32)c1C#N
    1.16 | 0.2
40	O=c1[nH]nc2c3ccccc3n(Cc3cccc(F)c3)cc1-2
    0.27 | -0.81
41	CCc1ccc(S(=O)(=O)NCc2cn3ccsc3n2)cc1
    / | -4.03
42	CN(C)CCNC(=O)c1cc(-c2ccncc2)nc2ccccc12
    / | -1.26
43	Clc1ccc(-c2nc3ncccn3c2Nc2ccc3c(c2)OCO3)cc1
    / | -2.2
44	CCOc1ccccc1C1C2=C(CCCC2=O)Nc2nc(SCC)nn21 (stereo not drawn)
    0.09 | 0.22
45	CC(C)(C)C1CCc2c(sc(NC(=O)COc3ccc(F)cc3)c2C(N)=O)C1 (stereo not drawn)
    / | -0.87

Pulled by structure from the entries so far:
Each structure is followed by: HIV TAR-Tat | CDC25B CDK2 inh
18	O=C(Cn1c(=O)oc2cc(S(=O)(=O)N3CCCC3)ccc21)N1CCCCCC1
    / | -0.92
37	CC1CC(C)CN(c2ccc3nncn3n2)C1 (stereo not drawn)
    1.55 | -1.54
28	CSc1ncc(-c2nnc(SCc3ccccc3)n2C)n1C
    / | 0.33
12	O=C(CCCN1CCN2CCCCC2C1)c1ccc(F)cc1 (stereo not drawn)
    0.59 | -0.6

Continuation.
Each structure is followed by: HIV TAR-Tat | CDC25B CDK2 inh
46	O=S(=O)(Nc1ccc2c(c1)N(S(=O)(=O)c1ccc(F)cc1)CCC2)c1ccccc1F
    0.31 | /
47	COc1ccc(Cc2nnc(SCc3ccc(Br)cc3)o2)cc1
    -0.18 | -0.39
48	CC1CCCCC1NS(=O)(=O)c1ccc2c(c1)NC(=O)CO2 (stereo not drawn)
    1.05 | /
49	Cc1cc2c3c([nH]c2cc1S(=O)(=O)NCc1cccs1)CC(C)(C)CC3=O
    -0.09 | /
50	COc1ccccc1-c1cc(C(F)F)n2ncc(C(=O)N3CCCC3c3ccccc3F)c2n1 (stereo not drawn)
    0.64 | 0.62
51	Cc1[nH]nc(-c2ccc(S(=O)(=O)N3CCC(C)CC3)s2)c1C
    -0.7 | /
52	COc1cc2c(NC3CCN(C(C)C)CC3)nc(C3CCCCC3)nc2cc1OCCCN1CCCC1
    0.21 | /
53	COC(=O)CCN1C(=O)c2cccc3cccc(c23)C1=O
    / | -0.69
54	CCC(NC(=O)c1cc(S(=O)(=O)N2CCc3ccccc32)cn1C)c1cccs1 (stereo not drawn)
    1.29 | -0.79
55	Nc1cccc(-c2nc3ncccc3o2)c1
    1.07 | -1.54
56	O=C(NCCN1CCc2ccccc2C1)C1CCC(Cn2c(=O)[nH]c3ccsc3c2=O)CC1 (stereo not drawn)
    1.24 | -0.64
57	CCC(=O)OC1=CN(Cc2ccccc2)S(=O)(=O)c2ccccc21
    0.88 | 2.08
58	O=C(NCc1ccc(F)cc1)N1CCN(Cc2ccc3nccnc3c2)CC1
    -0.79 | /
59	COC(=O)c1cc2sccc2n1Cc1ccc(F)cc1
    2.06 | /
60	Brc1ccc(OCc2nn3cnnc3s2)cc1
    -0.7 | -0.85
61	Cc1[nH]n2c(=O)cc(-c3ccccc3)nc2c1-c1ccccc1
    0.91 | -2.46
62	CN(C)CCNc1nc2c(c(=O)n(C)c(=O)n2C)n1Cc1ccc(F)cc1
    / | -1.29
63	CSc1cccc(NS(=O)(=O)c2ccc(-c3ccc(=O)[nH]n3)o2)c1
    0.92 | /
64	O=C1CCCC2=C1C(c1cccs1)n1nc(SCc3cccc(Cl)c3)nc1N2 (stereo not drawn)
    -1.96 | -2.06
65	CC(=O)NNC(=O)c1ccccn1
    / | -0.89
66	O=C(Nc1ccc(F)cc1)N1CCN2C(=O)c3ccccc3C12c1ccccc1 (stereo not drawn)
    / | -1.08
67	CC1(C)CC(=O)C2=C(C1)Nc1ccccc1N(C(=O)C1CC1)C2c1ccco1 (stereo not drawn)
    2.04 | -0.73
68	COc1ccc(CCNc2nc(-c3ccccc3)no2)cc1OC
    1.17 | /
69	O=C(CC1(O)C(=O)Nc2ccc(Cl)cc21)c1ccccc1F (stereo not drawn)
    2.18 | /
70	O=C(Nc1ccc(F)cc1)c1c2c(nc3ccccc13)C(=O)N(C1CCCCC1)C2
    -0.19 | /
71	CC(C)C(=O)Nc1ccc2nc(SCc3cc(=O)n4nc(C5CC5)sc4n3)sc2c1
    0.32 | /
72	Cc1ccccc1CSc1nc2c(c(=O)n(C)c(=O)n2C)n1C
    0.83 | 0.18
73	CCOC(=O)c1c(S(=O)(=O)N(Cc2ccco2)C2CCCC2)c(C)n(C)c1C
    1.59 | /
74	CCn1c(-c2ccccc2OC)n[nH]c1=S
    / | -1.23
75	COc1ccc(OC)c(NC(=O)NCc2c(-n3cccc3)sc3c2CCCC3)c1
    3.75 | -1.25
76	COc1ccc(CN2C(=O)c3cccnc3C2=O)cc1S(=O)(=O)NC1CC1
    0.25 | /
77	Cc1nc2sccn2c(=O)c1NC(=O)COc1ccc(Cl)cc1
    1.32 | /
78	O=C(NCCCN1CCCC1=O)c1csc2c1CCCCC2
    / | -0.48
79	NS(=O)(=O)c1ccc(CCNC(=O)CCCC2=NS(=O)(=O)c3ccccc3N2)cc1
    / | -0.23
80	CCc1cc2c(Nc3cccc(F)c3)ncnc2s1
    0.11 | /
81	CCN1CCN(CCNC(=O)C2=C(C)C(=O)OC23CCN(S(C)(=O)=O)CC3)CC1
    -1.08 | /
82	COc1ccc(-c2nc(C(N)=O)c3[nH]c(=O)n(CC4CCCO4)c3n2)cc1 (stereo not drawn)
    0.56 | /
83	O=C(Nc1ccc(F)cc1F)C1CCCN(S(=O)(=O)c2ccc3[nH]c(=O)oc3c2)C1 (stereo not drawn)
    1.73 | /
84	CC(C)c1onc(C(=O)NC(C)c2ccccc2)c1[N+](=O)[O-] (stereo not drawn)
    3.05 | -1.29
85	Cc1ccc2onc(CNC(=O)N3CCC(N4CCCCC4)CC3)c2c1
    1.1 | /
86	Cc1ccc(NC(=O)c2c3c(nc4ccccc24)C(=O)N(C2CCCCC2)C3)nc1
    0.51 | /
87	CCN(c1ccccc1)S(=O)(=O)c1ccc2c(c1)NC(=O)C(C)S2 (stereo not drawn)
    1.17 | /
88	CC1CCN(c2c(-c3ccc(C(C)C)cc3)c(=O)c2=O)CC1
    0.11 | /
89	O=C(CN1C(=O)C2C3C=CC(C3)C2C1=O)N1CCN(C(=O)c2ccco2)CC1 (stereo not drawn)
    / | -0.38
90	CC(C)CC(NC(=O)C1CCC(C)CC1)C(=O)NCCN1CCOCC1 (stereo not drawn)
    3.02 | -0.91
91	COCCCN1C(=O)c2cc3sccc3n2CC1(C)C(=O)NC1CCCC(C)C1C (stereo not drawn)
    2.51 | -0.85
92	CCCCOC(=O)c1ccc(NS(=O)(=O)c2c(C)nc3sccn3c2=O)cc1
    0.83 | /
93	CCCn1cc(S(=O)(=O)c2ccc(CC)cc2)c(=O)c2cc(C)ccc21
    0.98 | -1.2
94	CCC(C(=O)O)N1C(=O)CCn2nc(C)cc21 (stereo not drawn)
    0.14 | -2.23
95	COc1ccc(C(=O)C[n+]2cc(-c3ccc(OC)cc3)n3c2CCCCC3)cc1
    0.28 | -2.15
96	CCCNC(=O)C1CCCN(c2ncnc3onc(C)c23)C1 (stereo not drawn)
    0.82 | /
97	Clc1cc(CSc2ccccc2C2=NCCCN2)c(Cl)s1
    / | -2.75
98	CC(C)NC(=O)c1ccc(NC(=O)C2=CSCCO2)cc1
    1.17 | /
99	O=C(CNc1ncnc2ccccc12)NCCO
    -0.59 | -2.68
100	COc1ccc(C2CC(=O)C3=C(C2)NC(C)=C(C(=O)OC(C)C)C3c2ccc(O)c(OC)c2)cc1 (stereo not drawn)
    0.46 | -1.8
101	Cc1nc(-c2ccccc2)c(-c2ccccc2)[nH]1
    1.54 | -1.91
102	COC(=O)c1c(NC(=O)c2cc(-c3cccs3)on2)sc2c1CCCC2
    0.79 | 0.12
103	CC1(C)CC(=O)C2=C(C1)OC(N)=C(C#N)C2c1cccc(F)c1 (stereo not drawn)
    / | -3.51
104	CCn1cc(C2CC(=O)Nc3c2c(C)nn3-c2nc3ccc(OC)cc3s2)c(C)n1 (stereo not drawn)
    0.53 | /
105	CCCCc1nc(S(=O)(=O)c2ccc(C)cc2)c(N(C)C)o1
    0.56 | 0.63

The list continues:
Each structure is followed by: HIV TAR-Tat | CDC25B CDK2 inh
106	Cc1ccnc(NS(=O)(=O)c2ccc(Nc3cc(-c4ccccc4)nc(C)n3)cc2)n1
    -0.36 | -1.88
107	O=C(O)c1nccnc1C(=O)Nc1cc(F)ccc1F
    -2.08 | -1.25
108	COc1ccccc1OCc1nc2ccccc2n1C
    / | -0.88
109	CCCN1C(=O)C(O)(c2c(C)[nH]c3ccccc23)c2ccccc21 (stereo not drawn)
    1.13 | 1.45
110	Cc1cc(C)c(S(=O)(=O)NCCc2csc3nc(-c4ccccc4C)nn23)c(C)c1
    0.64 | /
111	CC(C)C(NC(=O)c1ccc2c(c1)nc1n2CCOC1)c1cccs1 (stereo not drawn)
    0.19 | /
112	Cc1[nH]nc(-c2ccc(S(=O)(=O)Nc3ccccc3F)s2)c1C
    1.39 | /
113	CC1=C(C(=O)OC2CCCCC2)C(c2cccnc2)C2=C(CC(C)(C)CC2=O)N1 (stereo not drawn)
    0.4 | -0.07
114	CCCNC(=O)CCC(=O)N1CC(C)Oc2ccc(Cl)cc21 (stereo not drawn)
    0.52 | -1.44
